Assay outcomes deposited in PubChem by National Center for Advancing Translational Sciences (NCATS).
2A StopGo: lowers the luciferase signal of an FMDV 2A StopGo reporter | human cells with a luciferase reporter of 2A StopGo recoding; control for the full effect not named in the record | actives 1.2% (n = 410,000) | Potency, µM (top dose mostly 57.9 µM), inactives show at the top dose signal change, negative = less light | AID 1159524; active = well fitted falling curve with a large enough effect; inconclusive = small, poorly fitted or top-dose-only effect; inactive = no such curve, though single readings can be large or run the other way; tested in HEK293T cells; further: on the % scale 0 is the no-effect control and ±100 the full control effect; nearly all actives have a fitted effect of over 45% in size; luciferase light after 4 h
Cruzain noTriton: cruzain (T. cruzi) inhibition without detergent | Potency, µM, without a hit: max response, negative = inhibition, hits mostly inhibitors | actives 2.3% (n = 200,000) | purified cruzain, Z-FR-AMC fluorescence, no detergent | P25779;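 further: plate controls were enzyme without inhibitor for no effect and buffer without enzyme for full effect; nearly all actives have a fitted effect of over 40% in size; top concentration of the series not given in the record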
Target sequence (P25779 123-467 limits assumed): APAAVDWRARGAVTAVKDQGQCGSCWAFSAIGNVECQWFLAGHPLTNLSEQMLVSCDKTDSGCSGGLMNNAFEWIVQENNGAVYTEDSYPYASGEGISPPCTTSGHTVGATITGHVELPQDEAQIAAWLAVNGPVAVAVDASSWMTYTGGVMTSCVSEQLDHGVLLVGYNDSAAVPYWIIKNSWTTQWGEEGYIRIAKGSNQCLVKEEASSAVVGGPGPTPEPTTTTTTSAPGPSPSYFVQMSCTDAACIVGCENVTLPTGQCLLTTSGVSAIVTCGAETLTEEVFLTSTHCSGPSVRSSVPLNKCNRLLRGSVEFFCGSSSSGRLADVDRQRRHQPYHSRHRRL
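Detergent-free condition (0.00005% Triton X-100) in acetate buffer pH 5.5 with DTT. 1.5 nM enzyme and compound were pre-mixed 15 min, then 2 uM Z-FR-AMC substrate added; reaction progress from fluorescence change between first and third reads (60 s).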
NS1 function inh: inhibitors of influenza NS1 protein function; S. cerevisiae slowed by influenza A NS1, growth recovery by OD600; Potency, µM (doses to about 46.1 µM), inactives show at the top dose activity, positive = more growth; actives 0.4% (n = 270,000); active means well fitted rising curve with a large enough effect; inconclusive means small, poorly fitted or top-dose-only effect; inactive means no such curve, though single readings can be large or run the other way; further: nearly all actives have a fitted effect of over 50% in size
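OD600 was taken as the measure of yeast growth restored by compound in an NS1-expressing S. cerevisiae strain. Cells had been washed out of glucose medium and diluted 1:100 into galactose -URA medium, pH 6.0.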
Lassa entry inh: Lassa virus entry inhibition; Lassa virus pseudotype entry inhibition, cell reporter; control for the full effect not named in the record; Potency, µM (highest dose often 37.9 µM), inactives show at the top dose activity change, negative = inhibition, actives largely listed as inhibitors; actives 1.2% (n = 300,000); AID 540256; active means well fitted inhibition curve with a large enough effect; inconclusive means small, poorly fitted or top-dose-only effect, or effect the other way; inactive means flat fitted curve, though single readings scatter; tested in HEK293 cells; further: on the % scale 0 is the no-effect control and ±100 the full control effect; nearly all actives have a fitted effect of over 50% in size; luciferase read-out
MARV entry inh: Marburg virus entry inhibition; Marburg virus pseudotyped entry inhibition, cell reporter; control for the full effect not named in the record; about a third of the inactives were read at about 46 µM; Potency, µM (doses to about 37.8 µM), without a hit: top-dose activity change, negative = inhibition, actives largely listed as inhibitors; actives 1.8% (n = 300,000); AID 540276; active = well fitted inhibition curve with a large enough effect; inconclusive = small, poorly fitted or top-dose-only effect, or effect the other way; inactive = flat fitted curve, though single readings scatter; tested in HEK293 cells; about a fifth of its hits are not listed in these tables; further: on the % scale 0 is the no-effect control and ±100 the full control effect; luciferase read-out
SARS PLpro yeast: blocks SARS-CoV papain-like protease in a yeast assay; S. cerevisiae expressing SARS-CoV PLpro, growth rescue; control for the full effect not named in the record; AID 485353; Potency, µM (top dose mostly 32.9 µM), for inactives: top-dose activity, positive = growth rescue; actives 0.19% (n = 330,000); active means well fitted rising curve with a large enough effect; inconclusive means small, poorly fitted or top-dose-only effect; inactive means no such curve, though single readings can be large or run the other way; further: 0% is about no effect; nearly all actives have a fitted effect of over 55% in size; growth read by luminescence after 48 h
RE007 growth inh: less growth of the S. pombe RE007 Vpr strain | S. pombe RE007 Vpr strain, BacTiter-Glo ATP luminescence, 24 h; control for the full effect not named in the record | Potency, µM (top dose mostly 92.2 µM), for inactives: top-dose activity change, negative = less growth | actives 0.21% (n = 360,000); active = well fitted falling curve with a large enough effect; inconclusive = small, poorly fitted or top-dose-only effect; inactive = no such curve, though single readings can be large or run the other way;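 further: on the % scale 0 is the no-effect control and ±100 the full control effect; nearly all actives have a fitted effect of over 50% in size; the assay follows cell death caused by Vpr and the record does not say whether a fall means rescue or toxicity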
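Fission yeast RE007 carrying one integrated HIV-1 vpr copy, seeded at OD 0.01 in PMG+AL medium with 23 nL pinned compound. Grown 24 h at 30 degrees; viability read by BacTiter-Glo luminescence after 5 min.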
Cruzain inh Det: blocks cruzain activity in presence of Triton detergent; purified cruzain, Z-FR-AMC fluorescence, 0.01% Triton; AID 1478; actives 0.43% (n = 200,000); Potency, µM, for inactives: max response, negative = inhibition, most hits filed as inhibitors;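 further: plate controls were neutral wells for no effect and buffer without enzyme for full effect; nearly all actives have a fitted effect of over 40% in size; top concentration of the series not given in the record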
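Purified cruzain (1.5 nM final) was preincubated with compounds for 15 min at room temperature in 100 mM sodium acetate pH 5.5, 5 mM DTT, 0.01% Triton X-100. Reaction started with 2 uM Z-FR-AMC; AMC fluorescence change over 60 s gave activity.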
* = called active by the depositor; [ ] = dose if it differs, or a comment. Unless noted, the call rests on the fitted dose curve; in most records, active means well fitted curve in the direction sought with a large enough effect; inconclusive means small, poorly fitted or top-dose-only effect, or another doubt; inactive means no such curve, though single readings can be large; an effect the other way counts as inactive or inconclusive. Potency means the concentration at half of the fitted maximal effect. Outcome played no part in choosing rows, and some 4.8% of all compounds hit somewhere here.

How did COCCCNC(=O)c1c(C)nn(-c2ccc(F)cc2)c1-n1cccc1 do in these assays?
2A StopGo: -16.2%; Cruzain noTriton: 1.6%; Lassa entry inh: 21.2%[46.1 µM]; Cruzain inh Det: -2.1%

How did CCOC(=O)c1ccc(Nc2ncnc3ccc(C)cc23)cc1 do in these assays?
2A StopGo: -17.6%; Cruzain noTriton: 10.9%; NS1 function inh: -58.6%; Lassa entry inh: -16.9%; MARV entry inh: inconclusive; SARS PLpro yeast: -4.0%; RE007 growth inh: -16.5%; Cruzain inh Det: -4.5%

What do the screens show for `CCN(CC)CCCC(C)NC(=O)c1c(NC(=O)c2ccccc2)sc2c1CCCC2` (stereo not given)?
2A StopGo: 10.3%; NS1 function inh: -13.3%; SARS PLpro yeast: 2.4%; RE007 growth inh: 10.0%

What do the screens show for `COc1ccc(NC(=O)C(C/C=C(/C)Cl)C(C)=O)cc1` (stereo not given)?
2A StopGo: 1.8%; Cruzain noTriton: 6.4%; NS1 function inh: -1.2%; Lassa entry inh: 2.7%; MARV entry inh: 0.0%; SARS PLpro yeast: 18.1%; RE007 growth inh: -15.1%; Cruzain inh Det: -4.8%

How did CCOc1ccc(NC(=O)CC2C(=O)NCCN2C(=O)Nc2ccccc2)cc1 (stereo not given) do in these assays?
2A StopGo: -23.1%; NS1 function inh: -3.4%; Lassa entry inh: 30.7%; MARV entry inh: -1.2%; SARS PLpro yeast: -3.6%; RE007 growth inh: 2.1%

Results for CCC(C)N1C(=O)/C(=C/c2c(NCCCOC(C)C)nc3c(C)cccn3c2=O)SC1=S (stereo not given) ?
2A StopGo: -10.2%; Cruzain noTriton: -6.6%; NS1 function inh: -2.9%; Lassa entry inh: inconclusive; MARV entry inh: inconclusive; SARS PLpro yeast: 0.3%; RE007 growth inh: -5.2%; Cruzain inh Det: -2.5%

How did Cc1nn(Cc2ccc(Cl)cc2)c(C)c1NC(=O)c1cc(-c2ccc3c(c2)OCO3)on1 do in these assays?
2A StopGo: inconclusive; Cruzain noTriton: inconclusive; NS1 function inh: -5.0%; Lassa entry inh: -17.9%; MARV entry inh: inconclusive; SARS PLpro yeast: 3.9%; RE007 growth inh: -5.3%; Cruzain inh Det: 2.5%

What do the screens show for `CN(C)c1ccc(/C=C/c2noc(-c3ccccc3O)n2)cc1`?
2A StopGo: 5.7%; Cruzain noTriton: -1.3%; Lassa entry inh: inconclusive; MARV entry inh: inconclusive; Cruzain inh Det: -3.7%

What do the screens show for `CCOCC(O)CSCc1ccc(Cl)cc1` (stereo not given)?
2A StopGo: 11.4%; Cruzain noTriton: 3.9%; NS1 function inh: 17.4%; Lassa entry inh: -3.7%; MARV entry inh: 2.1%; RE007 growth inh: 5.5%[3.69 µM]; Cruzain inh Det: 5.3%

Results for O=P(C(Cl)Cl)(N1CCCCC1)N1CCCCC1 ?
2A StopGo: 16.5%; Cruzain noTriton: -7.1%; NS1 function inh: -45.4%; Lassa entry inh: -11.6%; MARV entry inh: 0.7%; SARS PLpro yeast: 3.7%; RE007 growth inh: 1.1%; Cruzain inh Det: 5.6%

Results for CCOC(=O)/C(=N\O)C1=NC(C)(C)Cc2ccccc21 ?
2A StopGo: -4.2%; Cruzain noTriton: 1.7%; NS1 function inh: 0.8%; Lassa entry inh: 0.3%; MARV entry inh: inconclusive; SARS PLpro yeast: -4.6%; RE007 growth inh: 4.3%; Cruzain inh Det: 4.1%

Results for O=C(c1cnc(Cl)c(Cl)c1)N1CCC(Cc2ccccc2)CC1 ?
2A StopGo: inconclusive; NS1 function inh: 1.2%; Lassa entry inh: 0.8%; MARV entry inh: inconclusive; SARS PLpro yeast: -2.0%; RE007 growth inh: 0.6%

Results for Cc1ccc(N(CC(=O)NC2CCCC2)C(=O)CCC(=O)Nc2nccs2)cc1C ?
2A StopGo: 1.4%; NS1 function inh: 9.8%; MARV entry inh: 9.5%[46.1 µM]; SARS PLpro yeast: 2.1%; RE007 growth inh: 11.2%

What do the screens show for `Nc1ccc(Nc2ccc([N+](=O)[O-])cc2[N+](=O)[O-])cc1`?
2A StopGo: -18.3%; Lassa entry inh: -24.1%; MARV entry inh: -16.2%; SARS PLpro yeast: -3.2%; RE007 growth inh: -15.0%

Results for CN(C)c1ccc(C(=S)N2CCN(c3ccc([N+](=O)[O-])cc3)CC2)cc1 ?
2A StopGo: 0.0%; NS1 function inh: 0.0%; Lassa entry inh: inconclusive; MARV entry inh: -8.5%[46.1 µM]; SARS PLpro yeast: 0.1%; RE007 growth inh: -3.4%

Results for C/C(=N\N1CCN(c2ccc(Cl)cc2)CC1)c1cccc([N+](=O)[O-])c1 ?
2A StopGo: -28.1%; NS1 function inh: 6.1%; Lassa entry inh: inconclusive; MARV entry inh: -19.1%[46.1 µM]; SARS PLpro yeast: 0.0%; RE007 growth inh: -9.5%

Results for CCCCOc1ccc(C(C)NC(=O)CCS(=O)(=O)Cc2ccc(Cl)cc2)cc1 (stereo not given) ?
2A StopGo: -8.9%; Cruzain noTriton: inconclusive; NS1 function inh: 0.3%; Lassa entry inh: 4.1%; MARV entry inh: -28.1%; SARS PLpro yeast: 18.5%; RE007 growth inh: 14.3%; Cruzain inh Det: 0.8%

Results for O=C(CCCc1nc2ccccc2s1)N1CCN(c2ccccc2)CC1 ?
2A StopGo: 0.0%; Cruzain noTriton: 5.8%; NS1 function inh: -25.9%; Lassa entry inh: 10.1%; MARV entry inh: inconclusive; SARS PLpro yeast: -41.9%; RE007 growth inh: -26.7%; Cruzain inh Det: -18.8%

How did Oc1cccc(C=NN=C2c3ccccc3-c3ccccc32)c1 do in these assays?
2A StopGo: 10.9%; Lassa entry inh: inconclusive; MARV entry inh: -29.4%; RE007 growth inh: inconclusive

What do the screens show for `CCCCS(=O)(=O)N1CCN(S(=O)(=O)c2cccs2)CC1`?
2A StopGo: -10.5%; NS1 function inh: 9.4%; Lassa entry inh: 24.2%; MARV entry inh: 27.2%; SARS PLpro yeast: 3.5%; RE007 growth inh: 1.8%

Results for O=C1CC(=O)N(Cc2ccco2)C(=S)N1 ?
2A StopGo: -17.9%; Cruzain noTriton: -10.5%; NS1 function inh: inconclusive; Lassa entry inh: -14.5%; MARV entry inh: -2.2%; SARS PLpro yeast: 10.8%; RE007 growth inh: 10.6%; Cruzain inh Det: 1.7%

What do the screens show for `CCC(=O)N1CCCc2cc(S(=O)(=O)N3CCC(C(=O)NCc4ccc(F)cc4)CC3)ccc21`?
2A StopGo: -9.2%; Cruzain noTriton: -1.6%; Lassa entry inh: -19.6%[46.1 µM]; Cruzain inh Det: -1.7%

Results for COc1ccc(CNC(=O)C2CC(C)=CCC2C(=O)O)cc1 (stereo not given) ?
2A StopGo: -15.4%; NS1 function inh: 5.1%; SARS PLpro yeast: 5.3%; RE007 growth inh: -3.3%

What do the screens show for `COc1ccc(C)cc1NC(=O)C(=O)c1cn(CC(=O)N2CCCC2)c2ccccc12`?
2A StopGo: -11.0%; NS1 function inh: 29.5%; Lassa entry inh: -26.5%; MARV entry inh: inconclusive; SARS PLpro yeast: -3.6%; RE007 growth inh: -5.2%

Results for CCOc1ccccc1NC(=O)n1ncc2c(C)cccc21 ?
2A StopGo: 7.4%; NS1 function inh: -1.3%; Lassa entry inh: 12.8%[46.1 µM]; MARV entry inh: 14.1%[46.1 µM]; SARS PLpro yeast: 0.1%; RE007 growth inh: -1.9%

What do the screens show for `O=C(CSc1nnc(-c2ccccc2F)o1)Nc1ccccc1Cl`?
2A StopGo: 18.7%; Cruzain noTriton: 40.1%; Lassa entry inh: 1.7%[46.1 µM]; MARV entry inh: 41.1%[46.1 µM]; Cruzain inh Det: 5.1%

What do the screens show for `COc1cccc(/C=N/NC(=O)c2ccoc2C)c1O`?
2A StopGo: -29.2%; NS1 function inh: -5.0%; SARS PLpro yeast: 0.6%; RE007 growth inh: -13.3%

How did Cc1cccc(N(C(=O)c2snc(C(N)=O)c2N)C(C(=O)NC2CCCC2)c2ccco2)c1 (stereo not given) do in these assays?
2A StopGo: 3.1%; NS1 function inh: 14.0%; Lassa entry inh: -11.6%; MARV entry inh: inconclusive; SARS PLpro yeast: 2.7%; RE007 growth inh: -1.8%

What do the screens show for `C/C(=N\NC(=O)CO/N=C(\C)c1cccs1)c1ccc(N)cc1`?
2A StopGo: -2.0%; NS1 function inh: 2.5%; SARS PLpro yeast: -0.9%; RE007 growth inh: -3.2%

Results for COc1ccc(CCNC(=O)COc2cc(O)c3c(c2)OC(C)(C)CC3=O)cc1OC ?
2A StopGo: -26.5%; NS1 function inh: -20.6%; SARS PLpro yeast: 5.0%; RE007 growth inh: -5.7%

Results for CCc1cccc2c(C=C(C#N)C#N)cn(CC(=O)N3CCCCC3)c12 ?
2A StopGo: 16.9%; Cruzain noTriton: 5.4%; NS1 function inh: 11.7%; Lassa entry inh: 5.3%; MARV entry inh: -12.0%; SARS PLpro yeast: 0.5%; RE007 growth inh: 12.5%; Cruzain inh Det: 7.8%

Results for O=C(NN=C1CCCCCC1)c1ccc(Cl)s1 ?
2A StopGo: 43.6%[activator]; NS1 function inh: -4.8%; Lassa entry inh: 17.7%[46.1 µM]; MARV entry inh: inconclusive; SARS PLpro yeast: -4.2%; RE007 growth inh: 4.5%

What do the screens show for `CCN1CCN(Cc2ccc(OCc3ccccc3)cc2)CC1`?
2A StopGo: 12.5%; Cruzain noTriton: 5.4%; NS1 function inh: -29.1%; Lassa entry inh: inconclusive; MARV entry inh: inconclusive; SARS PLpro yeast: -4.1%; RE007 growth inh: -14.7%; Cruzain inh Det: 3.4%

How did COc1cc(NC(=O)Nn2cnnc2)cc(OC)c1OC do in these assays?
2A StopGo: 4.6%; NS1 function inh: 3.2%; Lassa entry inh: inconclusive; MARV entry inh: inconclusive; SARS PLpro yeast: 0.0%; RE007 growth inh: 4.8%

Results for Cc1[nH]c2ccccc2c1C1=CN2CCS(=O)(=O)N=C2S1 ?
2A StopGo: -10.3%; Cruzain noTriton: -6.3%; NS1 function inh: 1.9%; Lassa entry inh: 5.9%; MARV entry inh: -15.4%; SARS PLpro yeast: 2.2%; RE007 growth inh: 21.2%; Cruzain inh Det: 4.1%
